Vif TR-FRET: HIV-1 Vif–A3G interaction blockers – biochemical, TR-FRET, GST-Vif 1-94, biotin-A3G peptide, dose response retest, primary screen (AID 1117319) | one-dose inhibition, %; IC50 in µM for titrated hits | TR-FRET GST-Vif / biotin-A3G peptide binding; higher % means a stronger effect; test concentration not given here; strong numbers were not always called active | actives 0.57% (n = 260,000);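 active = above the screen mean plus three standard deviations and confirmed in dose response; inconclusive = results disagree or hit not tested in dose response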;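 note: Vif residues 1-94 fused to GST binding biotinylated APOBEC3G peptide 110-148; 0% = full assay without inhibitor and 100% = GST in place of GST-Vif; retest series ran down from 100 µM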
FGF22 binding: shifts melting point of recombinant human FGF22; Q9HCT0; recombinant FGF22 thermal shift, SYPRO orange fluorescence; percent of sucrose octasulfate shift, DMSO zero; calls only at 9.99 µM; actives 1.5% (n = 340,000); AID 651658;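 active = melting point raised past a set limit in the mean and every replicate; inconclusive = no clear call; three in four hits are not shown here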
Target sequence (Q9HCT0 whole entry, looked up): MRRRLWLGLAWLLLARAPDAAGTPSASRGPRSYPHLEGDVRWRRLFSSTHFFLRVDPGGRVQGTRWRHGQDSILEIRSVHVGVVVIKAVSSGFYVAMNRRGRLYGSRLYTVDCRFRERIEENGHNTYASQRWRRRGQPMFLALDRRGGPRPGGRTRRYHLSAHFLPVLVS
Ecoli rRNA inh: selective bacterial rRNA inhibition in E. coli. E. coli WT GFP vs humanized-ribosome RFP mutants, fluorescence, 24 h; stronger effect = lower value; DMSO median 0, no signal -100. GFP signal change (wild-type ribosome), % (concentration not given with the values). actives 1.6% (n = 350,000). AID 720706;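 active = significant combined selectivity score with lowered wild-type GFP, culture density cut under 30%, mutant RFP and density less affected; inactive = any of these conditions unmet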; note: one replicate is shown; some compounds called inactive have numbers as strong as hits
ALR H2O2 inh: inhibitors of human sulfhydryl oxidase ALR; P55789; purified ALR, DTT oxidation, H2O2 HRP-luminol luminescence; inhibition, % (concentration not given with the values); actives 3.8% (n = 290,000); AID 485317;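 active = mean and each replicate at 75% or more; inconclusive = only one of the two met; inactive = neither met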;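 note: stock transfer was 7.5 nL into about 7.5 µL; 0% = neutral wells and 100% = wells with inactivated enzyme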
Target sequence (P55789 whole entry, looked up): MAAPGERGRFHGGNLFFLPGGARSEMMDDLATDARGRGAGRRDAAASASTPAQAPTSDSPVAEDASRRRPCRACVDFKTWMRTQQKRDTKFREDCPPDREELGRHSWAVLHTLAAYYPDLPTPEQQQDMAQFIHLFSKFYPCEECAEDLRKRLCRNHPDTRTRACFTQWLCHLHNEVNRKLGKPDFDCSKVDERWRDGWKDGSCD
HNF4A DNA FP: change in binding of human HNF4 alpha to DNA. activity change, % at 10 µM. HNF4a-FITC DNA binding, fluorescence polarization, 1 h. actives 0.3% (n = 360,000). P41235; in the data active = activity change above about 30%, passing the limit was not always enough;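 note: controls were the assay level and a saturating level of protein; the project sought stronger binding though the title names inhibitors; some compounds called inactive have numbers as strong as hits; positive values seem to mean higher polarization but the record does not say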
Target sequence (P41235 whole entry, looked up): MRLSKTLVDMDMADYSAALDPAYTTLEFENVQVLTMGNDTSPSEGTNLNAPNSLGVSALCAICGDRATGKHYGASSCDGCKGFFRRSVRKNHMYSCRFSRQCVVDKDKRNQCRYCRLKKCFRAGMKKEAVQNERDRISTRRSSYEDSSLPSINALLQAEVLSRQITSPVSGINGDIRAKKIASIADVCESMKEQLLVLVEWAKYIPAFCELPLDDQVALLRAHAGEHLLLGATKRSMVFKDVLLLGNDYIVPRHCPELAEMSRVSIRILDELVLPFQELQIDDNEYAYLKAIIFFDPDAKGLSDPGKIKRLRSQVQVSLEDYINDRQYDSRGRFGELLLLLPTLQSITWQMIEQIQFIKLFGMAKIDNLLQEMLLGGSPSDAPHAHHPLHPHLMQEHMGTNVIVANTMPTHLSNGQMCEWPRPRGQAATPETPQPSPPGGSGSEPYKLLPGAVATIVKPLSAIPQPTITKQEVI
AF4-AF9 inh: blocks AF4 peptide binding to human AF9. inhibition, % at 10 µM. AID 651704. P42568. actives 0.47% (n = 350,000). AlphaScreen, biotin-AF4 peptide binding to FLAG-AF9;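 active = every replicate reaching a set inhibition limit, whatever the replicate mean, cut at about 25% in these data; inconclusive = mean inhibition reaches that limit but some replicates miss it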;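 note: 0% = plate neutral control median and 100% = total signal loss; the record names both 10 and 1 µM as test concentration; the first replicate is given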
Ecoli growth: blocks Escherichia coli growth | OD600, 23 h; stronger effect = lower value | OD600 absorbance (test concentration not listed) | actives 0.21% (n = 330,000) | AID 1053175;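 active = OD600 absorbance below the run mean of sample wells minus 3.6 SD, in any replicate, cut at about 0.56 in these data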;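 note: stock transfer was 300 nL into about 60 µL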
Ecoli rRNA inh OD600: recorded beside Ecoli rRNA inh, whose call it bears; OD600 change, %; measured here: OD600 growth;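 optical density of the mix in the first replicate; 0 = DMSO median and -100 = no signal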
Ecoli rRNA inh RFP: second read-out of Ecoli rRNA inh, no call of its own (marks repeat the call); RFP signal change, %; measured here: RFP humanized mutant strains;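 first replicate; 0 = DMSO median and -100 = no signal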
* hit, by the source's call; i = inactive; u = inconclusive; x = no result given.

SMILES | Vif TR-FRET | FGF22 binding | Ecoli rRNA inh | Ecoli rRNA inh OD600 | Ecoli rRNA inh RFP | ALR H2O2 inh | HNF4A DNA FP | AF4-AF9 inh | Ecoli growth
CCCc1ccc(O)c(N=Cc2cc(Br)cc(OCC)c2O)c1 | 29% | i | -13 | 1 | -1.8 | 2 | 11 | -5.6 | x
CCN(C(=O)CSc1ncccc1C(=O)OC(C)C)c1cccc(C)c1 | 2% | x | x | x | x | -3 | 2.9 | x | 0.71
COc1ccc(NC(=O)CNc2ccccc2N2CCCC2=O)cc1S(=O)(=O)N1CCOCC1 | -11% | i | x | x | x | -8 | -2.7 | -0.6 | 0.71
C=CCn1c(N)c(C(=O)NCc2ccco2)sc1=S | 1% | x | x | x | x | 98* | 1.1 | x | 0.7
CC(OC(=O)CCc1nc2ccccc2c(=O)[nH]1)C(=O)Nc1ccc2c(c1)OCO2 (stereo not drawn) | 3% | i | 9 | 7 | 4.4 | -5 | 1.3 | -3.6 | 0.73
O=C1C2CCCN2c2ccc(S(=O)(=O)N3CCOCC3)cc2N1Cc1ccccc1F (stereo not drawn) | 4% | x | x | x | x | x | 3.0 | x | 0.69
CCCC(=O)N1CC2(CCN(C(C)=O)CC2)c2c(n(C)c3cc(OC)ccc23)[C@H]1CO | x | i | -1 | 7 | 3.4 | x | x | -0.3 | x
CC(NC(=O)NC(=O)c1cccc(Cl)c1)c1ccccc1 (stereo not drawn) | x | i | -3 | 11 | -1.1 | -2 | 0.1 | -0.9 | 0.68
COc1cccc(NC(=O)CN(C)C(=O)c2cc(-c3ccccc3)nn2-c2ccccc2)c1 | 11% | i | -10 | -25 | -5.8 | -2 | 2.7 | -3.6 | 0.69
COc1ccc(NC(=O)N(C)C[C@@H]2Oc3ccc(NC(=O)Nc4ccc(C(F)(F)F)cc4)cc3CC(=O)N([C@H](C)CO)C[C@H]2C)cc1 | x | i | -5 | -7 | 4.1 | x | x | -0.1 | x
COc1cccc(NC(=O)COC(=O)CCn2c(C)csc2=O)c1 | -4% | i | 3 | 1 | -2.0 | -9 | 1.0 | 0.0 | 0.69
CN1CCN(S(=O)(=O)c2cccc(C(=O)NC3CCCc4ccccc43)c2)CC1 (stereo not drawn) | 1% | x | x | x | x | -8 | -2.5 | x | 0.72
CCOC(=O)C1CCCN(C(=O)c2ccc3c(c2)CCO3)CC1 (stereo not drawn) | x | i | 4 | -15 | 10 | x | -0.4 | 1.9 | x
O=C1OC[C@@H]2CCCN2C(=O)[C@@H](CC(=O)N(CCO)Cc2ccccc2)C/C=C\C[C@H]1Cc1ccc(F)cc1 | x | i | -21* | -13* | 4.4* | -12 | -4.7 | 1.4 | x
Cc1cccc(OCc2nnc(SCC(=O)N3CCCCC3)o2)c1 | 0% | i | 4 | -8 | 1.8 | -2 | -1.0 | 0.3 | 0.67
C[N+](C)(C)CCC(=O)N1C/C(=C/c2ccccc2)C(=O)/C(=C\c2ccccc2)C1 | 3% | i | 1 | 5 | 6.3 | x | 0.3 | -5.6 | x
O=C(CNC(=O)c1ccc(Oc2ccccc2)cc1)OC1CCCCC1=O (stereo not drawn) | u | x | x | x | x | 12 | -1.4 | x | 0.72
COc1ccc(O)c(CN2CCC(n3nccc3NC(=O)C3CCCC3)CC2)c1 | 0% | i | 10 | -7 | 4.5 | -7 | 0.7 | 2.9 | 0.66
CCOC(=O)Cc1nnc2c(Nc3ccccc3F)nc3nonc3n12 | -5% | x | x | x | x | x | -7.6 | x | 0.75
COc1ccccc1CNC(=O)CSc1nnc2c(n1)[nH]c1ccc(F)cc12 | x | i | 3 | 9 | -3.4 | x | 5.2 | -1.0 | 0.63
O=C(NNC(=O)c1cc(Cl)ccc1O)c1ccc(NS(=O)(=O)c2cccs2)cc1 | -10% | i | -1 | -3 | 7.0 | 41 | -1.4 | 4.2 | 0.67
COc1ccc(C(=O)c2ccc(Br)cc2)c(OC)c1OC | 0% | i | x | x | x | x | 0.4 | 1.8 | 0.67
CN(C)C(=O)C[C@H]1C[C@@H]2c3cc(NC(=O)Nc4ccccc4F)ccc3O[C@@H]2[C@@H](CO)O1 | x | i | -8 | -6 | -3.4 | x | x | 0.7 | x
CC(=O)Nc1cc(-c2ccc(F)cc2)cn2c(-c3ccc(F)c(Cl)c3)cnc12 | x | i | -2 | -26 | 12 | x | 11 | 0.0 | x
NC(=O)c1nsc(C(=O)N(c2ccc3c(c2)OCO3)C(C(=O)NCC2CCCO2)c2ccc(F)cc2)c1N (stereo not drawn) | x | i | 5 | 7 | -2.7 | -9 | -1.4 | 4.8 | 0.65

Reprinted at random: 2 entries already listed.
SMILES | Vif TR-FRET | FGF22 binding | Ecoli rRNA inh | Ecoli rRNA inh OD600 | Ecoli rRNA inh RFP | ALR H2O2 inh | HNF4A DNA FP | AF4-AF9 inh | Ecoli growth
C=CCn1c(N)c(C(=O)NCc2ccco2)sc1=S | 1% | x | x | x | x | 98* | 1.1 | x | 0.7
Cc1cccc(OCc2nnc(SCC(=O)N3CCCCC3)o2)c1 | 0% | i | 4 | -8 | 1.8 | -2 | -1.0 | 0.3 | 0.67

Of the compounds above, these contain bromine:
SMILES | Vif TR-FRET | FGF22 binding | Ecoli rRNA inh | Ecoli rRNA inh OD600 | Ecoli rRNA inh RFP | ALR H2O2 inh | HNF4A DNA FP | AF4-AF9 inh | Ecoli growth
CCCc1ccc(O)c(N=Cc2cc(Br)cc(OCC)c2O)c1 | 29% | i | -13 | 1 | -1.8 | 2 | 11 | -5.6 | x
COc1ccc(C(=O)c2ccc(Br)cc2)c(OC)c1OC | 0% | i | x | x | x | x | 0.4 | 1.8 | 0.67

The list continues.
SMILES | Vif TR-FRET | FGF22 binding | Ecoli rRNA inh | Ecoli rRNA inh OD600 | Ecoli rRNA inh RFP | ALR H2O2 inh | HNF4A DNA FP | AF4-AF9 inh | Ecoli growth
CCN(C(=O)COC(=O)CCc1ccccc1)c1ccccc1 | u | i | -34* | -7.0* | 8.9* | -8 | -1.7 | -0.9 | 0.67
O=C(OCc1cn(-c2ccc(Cl)cc2)nn1)c1ccccc1 | 2% | x | x | x | x | -7 | 1.6 | x | 0.64
Cc1ccc(C)c(NC(=O)CN(C)C(=O)CSCc2c(C)noc2C)c1 | 4% | x | 4 | -3 | -0.6 | 8 | -1.8 | -2.2 | 0.71
Cc1cccc(OCc2nnc(SCC(=O)Nc3cccc(C(=O)N4CCOCC4)c3)o2)c1C | -6% | i | -2 | -1 | -1.4 | x | 0.1 | -2.3 | 0.65
COc1ccc(CN(C)C[C@H]2Oc3ccc(NC(=O)NC(C)C)cc3C(=O)N([C@@H](C)CO)C[C@@H]2C)cc1 | x | i | 1 | 2 | -3.3 | x | x | 0.7 | x
C=CCOc1cccc(C2/C(=C(/O)c3ccc(C)cc3)C(=O)C(=O)N2CCN2CCOCC2)c1 (stereo not drawn) | 3% | x | x | x | x | 5 | 3.0 | x | 0.78
COc1ccc(CNC(N)=O)cc1OC | 2% | x | x | x | x | 0 | 2.5 | x | 0.72
NC(=O)CNC(=O)[C@@H]1CC2(CC(c3cccc([N+](=O)[O-])c3)=NO2)CN1C(=O)c1ccccc1 (stereo partly drawn) | 5% | i | 9 | 15 | -0.3 | -11 | -0.4 | 2.0 | x
CC(NC(=O)CN(C)CC(=O)Nc1ccc(Cl)c(C(F)(F)F)c1)c1ccccc1 (stereo not drawn) | 1% | i | -60 | -80 | -18 | 3 | 0.3 | 0.9 | 0.68
CCOC(=O)Nc1ccc(S(=O)(=O)NC2CCCCC2)cc1 | -6% | i | 6 | 17 | 2.3 | x | -1.2 | 2.4 | 0.75
O=C(NC1CCSc2ccccc21)c1ccccc1F (stereo not drawn) | 0% | i | 4 | 0 | 4.5 | -6 | -3.6 | -2.4 | 0.67
CC(=O)NC(CC(=O)OCC(=O)NCCc1ccccc1)c1ccccc1 (stereo not drawn) | 0% | i | 6 | 6 | -0.7 | 7 | 1.7 | -6.7 | 0.68
CCCCN1C(=O)c2ccc(C(=O)Nc3c(N)n(CCCC)c(=O)n(C)c3=O)cc2C1=O | 4% | x | x | x | x | 7 | -14 | x | 0.69
O=C(NCC(=O)N(CCN1CCOCC1)C(C(=O)NC1CCCC1)c1ccccc1)c1cccs1 (stereo not drawn) | x | i | 17 | 18 | 0.9 | -2 | 2.3 | 2.1 | 0.7
CCN(Cc1ccccc1)C(=O)CCS(=O)(=O)c1ccc2c(c1)NC(=O)CO2 | x | i | 13 | 9 | 4.7 | 3 | 0.1 | -3.8 | 0.7
CCOC(=O)C1OC1(c1ccccc1)c1ccccc1 (stereo not drawn) | 6% | i | -3 | -3 | -1.2 | x | 5.3 | -9.2 | 0.71
Cc1ccccc1N1C(=O)C(Cl)=C(N2CCN(c3ccccc3)CC2)C1=O | -10% | x | x | x | x | 3 | -1.9 | x | 0.73
COc1cc(NC(=O)c2c(F)cccc2F)c(Cl)cc1Cl | -8% | x | 7 | 11 | -4.7 | -2 | 2.4 | -0.2 | 0.69
CCNC(=O)[C@@H]1[C@@H](CO)[C@@H]2Cn3c(ccc(-c4cccc(OC)c4)c3=O)[C@@H]2N1C(=O)NC(C)C | x | i | -2 | -1 | -2.4 | x | x | -0.3 | x
COc1ccc(-c2nnc3sc(C4CCCCC4)nn23)cc1OC | -3% | x | x | x | x | -7 | 6.7 | x | 0.65
COc1ccc(C(C)(NC(C)=O)c2nc(-c3cccc(NC(C)=O)c3)cs2)cc1 (stereo not drawn) | x | i | -3 | -4 | 2.9 | x | -1.3 | 0.1 | x
CCC(=O)N(Cc1cc2ccccc2[nH]c1=O)c1ccc(OC)cc1 | 14% | i | 6 | 5 | 0.1 | x | -0.5 | 0.2 | 0.69
CCn1c(=O)n(CC(=O)NC2CCCC(C)C2C)c(=O)c2ccccc21 (stereo not drawn) | u | x | x | x | x | -4 | -1.4 | x | 0.8
OC(CNCC1CCCCC1)COc1ccccc1 (stereo not drawn) | x | i | 4 | 4 | -2.5 | -6 | 1.0 | 0.0 | 0.64
CC1(C)Cc2nc3sc4c(SCC(=O)NCc5ccco5)ncnc4c3cc2CO1 | 79µM* | x | x | x | x | -8 | 0.4 | x | 0.7
(listing goes on)
SMILES | Vif TR-FRET | FGF22 binding | Ecoli rRNA inh | Ecoli rRNA inh OD600 | Ecoli rRNA inh RFP | ALR H2O2 inh | HNF4A DNA FP | AF4-AF9 inh | Ecoli growth
CCN(Cc1ccncc1)C(=O)c1cc(COc2c(F)cccc2F)on1 | x | i | -4 | 2 | -2.9 | -5 | 4.1 | -3.1 | 0.64
CC(NC(=O)NC1CCCCC1)C(c1cccs1)N1CCN(Cc2ccccc2)CC1 (stereo not drawn) | -1% | i | 4 | -19 | 2.6 | -19 | -3.0 | 2.0 | 0.65
C[C@H]1CCCCO[C@@H](CN(C)C(=O)NC2CCCCC2)[C@@H](C)CN([C@@H](C)CO)C(=O)c2cc(NC(=O)Nc3cccc4ccccc34)ccc2O1 | x | i | 3 | 6 | -2.1 | x | x | -1.0 | x
COC(=O)C[C@@H]1CC[C@@H]2[C@H](COc3ccc(NC(=O)c4ccc(C(F)(F)F)cc4)cc3C(=O)N2C)O1 | x | i | 0 | 1 | -1.4 | x | x | -1.3 | x
CCCCN(C(=O)c1c(C)noc1C)c1c(N)n(CCCC)c(=O)[nH]c1=O | -7% | i | 1 | 10 | 3.3 | 7 | -3.4 | 3.3 | 0.68
C[C@@H]1CCCCO[C@H](CN(C)S(=O)(=O)c2ccc(F)cc2)[C@@H](C)CN([C@H](C)CO)C(=O)c2cc(NC(=O)CCCN(C)C)ccc2O1 | x | i | 1 | 4 | -2.1 | x | x | 3.0 | x
COc1ccccc1C(=O)NNC(=O)c1sccc1-n1cccc1 | -5% | i | 10 | 15 | -6.1 | 4 | -1.6 | -1.8 | 0.67

Bioassay records as filed in PubChem BioAssay.

These rows are one share of the data, so the mix of outcomes need not match the whole.
